Fam108B inh: mouse Fam108B serine hydrolase inhibitors, primary screen, counter-screen for RBBP9 inhibitor project, biochemical, fluorescence polarization | recombinant Fam108B, FP-Rh probe fluorescence polarization | inhibition, % at 9.51 µM | 0.33% of 300,000 active | AID 1947, 2009;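 active means inhibition above the screen mean inhibition plus 3 SD, computed separately per campaign, cut at about 18% in these data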;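 further: inhibitors lower polarization as less probe binds the enzyme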
PAFAH2 inh: PAFAH2 enzyme inhibitors, primary screen, biochemical, fluorescence polarization, human | Platelet-activating factor acetylhydrolase 2, cytoplasmic (Homo sapiens), Q99487 | recombinant PAFAH2, FP-rhodamine activity probe | inhibition, % at 3.39 µM | 0.99% of 340,000 active;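 active means inhibition above the mean over all tested compounds plus 3 SD, cut at about 30% in these data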;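 further: inhibitors block probe labeling of enzyme so polarization drops; 0% = enzyme with DMSO and 100% = wells lacking PAFAH2 protein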
PME-1 inh: PME-1 inhibitors via competitive probe labeling, primary screen, biochemical, fluorescence polarization, FP-Rh probe, HTS. recombinant PME-1. 0.53% of 320,000 active. AID 2130, 2009. Protein phosphatase methylesterase 1 (Homo sapiens), Q9Y570. inhibition, % at 5.9 µM;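 active means inhibition above the campaign mean of all compounds plus 3 SD, cut at about 26% in these data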;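 further: competitive labeling of PME-1 active site by serine hydrolase directed probe; 0% = PME-1 with DMSO and 100% = wells lacking PME-1 enzyme; inhibitors block probe labeling so polarization falls and inhibition rises; many of its hits are not listed in these tables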
Target sequence (Q9Y570 whole entry, looked up): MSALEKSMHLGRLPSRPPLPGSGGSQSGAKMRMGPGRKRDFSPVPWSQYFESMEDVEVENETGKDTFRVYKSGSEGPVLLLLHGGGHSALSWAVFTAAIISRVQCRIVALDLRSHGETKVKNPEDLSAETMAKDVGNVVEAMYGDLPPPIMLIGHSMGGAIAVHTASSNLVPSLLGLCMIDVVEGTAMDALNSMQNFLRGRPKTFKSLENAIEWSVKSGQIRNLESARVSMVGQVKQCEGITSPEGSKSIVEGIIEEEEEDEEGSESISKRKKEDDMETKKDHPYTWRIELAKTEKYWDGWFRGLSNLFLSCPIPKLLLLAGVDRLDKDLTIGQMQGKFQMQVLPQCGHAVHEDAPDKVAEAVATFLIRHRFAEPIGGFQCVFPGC
PAD4 inh: human PAD4 inhibitors, primary screen, biochemical, fluorescence polarization, 1536-well format | recombinant PAD4, RCA probe fluorescence polarization | inhibition, % at 6.36 µM | 0.41% of 330,000 active | AID 485272, 2010;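 active means percent inhibition above a cutoff equal to the mean of all tested compounds plus 3 SD, cut at about 15% in these data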;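 further: 0% = PAD4 with RCA probe and DMSO and 100% = probe without PAD4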
LYPLA1 counter: LYPLA1 inhibitors, primary screen, counter-screen for PME1 inhibitor project, biochemical, fluorescence polarization, FP-Rh probe ABPP. Acyl-protein thioesterase 1 (Homo sapiens), O75608. recombinant LYPLA1. inhibition, % at 5.9 µM. 0.16% of 320,000 active;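 active means inhibition above the mean of all tested compounds plus 3 SD, set per campaign, cut at about 14% in these data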;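 further: inhibitors block serine hydrolase probe labeling of LYPLA1 so polarization falls; 0% = enzyme with DMSO and 100% = wells lacking LYPLA1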
Target sequence (O75608 whole entry, looked up): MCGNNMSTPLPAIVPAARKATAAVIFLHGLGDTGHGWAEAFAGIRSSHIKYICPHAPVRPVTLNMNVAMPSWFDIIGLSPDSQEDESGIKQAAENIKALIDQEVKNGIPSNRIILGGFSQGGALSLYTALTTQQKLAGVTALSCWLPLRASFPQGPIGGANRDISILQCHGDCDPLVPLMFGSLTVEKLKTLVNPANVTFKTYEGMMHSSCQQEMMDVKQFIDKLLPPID
PAFAH1B3 FP inh: PAFAH1B3 enzyme inhibitors, primary screen, biochemical, fluorescence polarization, human. Platelet-activating factor acetylhydrolase IB subunit alpha1 (Homo sapiens), Q15102. recombinant PAFAH1B3, FP-rhodamine probe. inhibition, % at 3.39 µM. 0.28% of 340,000 active;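 active means inhibition above the screen-wide average of all tested compounds plus 3 SD, cut at about 25% in these data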;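 further: 0% = enzyme with DMSO only and 100% = wells lacking PAFAH1B3 protein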
Target sequence (Q15102 whole entry, looked up): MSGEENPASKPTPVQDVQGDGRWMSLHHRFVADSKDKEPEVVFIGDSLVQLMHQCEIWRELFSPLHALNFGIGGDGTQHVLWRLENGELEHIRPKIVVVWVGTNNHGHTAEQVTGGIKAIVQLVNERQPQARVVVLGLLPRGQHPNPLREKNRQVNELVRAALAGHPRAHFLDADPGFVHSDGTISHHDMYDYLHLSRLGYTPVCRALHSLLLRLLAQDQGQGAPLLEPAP
An asterisk follows results filed as active; . = no result given. Some of the compounds tested (hit frequency here may not be typical).

#1 CCc1ccc(OCc2nnc(SCC(=O)N3CCN(c4ccccc4)CC3)o2)cc1
#2 CN(C)CC(C)(C)NS(=O)(=O)c1ccc(Cl)cc1
#3 Cc1nn(-c2ccc(C(=O)O)cc2)c(=O)c2ccccc12
#4 CC(NC(=O)Nc1ccccc1C(F)(F)F)C1CCCO1 (stereo not drawn)
#5 CCc1cc(-c2n[nH]c(C)c2-c2nc3ccccc3s2)c(O)cc1OCC(=O)NN
#6 COc1ccc(NS(=O)(=O)c2cccc(C(=O)NCCCN3CCOCC3)c2)cc1
#7 CCC(C)(C)n1nnnc1C(c1cc2cccc(C)c2[nH]c1=O)N1CCN(C(=O)c2ccco2)CC1 (stereo not drawn)
#8 O=S(=O)(NC1CCCCCC1)c1cccc2cccnc12

screen / no.,1,2,3,4,5,6,7,8
PME-1 inh,0,0,1,-8,7,4,0,8
LYPLA1 counter,4,1,-3,-2,-9,2,3,-2
PAD4 inh,-2,-3,3,-1,-4,-1,-3,-3
PAFAH1B3 FP inh,3,1,4,-1,1,7,2,-5
Fam108B inh,-3,6,0,3,-2,-3,3,0
PAFAH2 inh,-1,3,-6,1,-1,8,0,4

#9 CCC(=O)N(CCC(c1ccccc1)c1ccco1)Cc1cccs1 (stereo not drawn)
#10 c1cc(C(c2nnnn2C2CCCC2)N2CCOCC2)ccn1 (stereo not drawn)
#11 C=CCNC(=O)N[C@@H](CCSC)C(=O)OC
#12 COc1ccccc1C(=O)Nc1ccc2c(c1)OCCO2
#13 COc1ccc(C2SCC(C(=O)NCc3ccc(F)cc3)N2C(C)=O)cc1 (stereo not drawn)
#14 CC1C(O)=C(c2nc3ccccc3[nH]2)C(=N)N1c1ccccc1 (stereo not drawn)
#15 COc1ccc(OC)c(NC(=O)CSc2ccc3nnc(-c4cccnc4)n3n2)c1
#16 CCOC(=O)[C@@H](C)N(Cc1ccc(OC)cc1)S(=O)(=O)N(Cc1ccccc1)[C@H](C(=O)OC)C(C)C

screen / no.,9,10,11,12,13,14,15,16
PME-1 inh,6,-1,-1,-1,-10,-1,-2,1
LYPLA1 counter,1,-2,0,-5,-2,2,-2,-3
PAD4 inh,-2,-3,2,1,-4,1,-2,0
PAFAH1B3 FP inh,0,24,-2,4,3,6,0,7
Fam108B inh,0,0,-2,-1,-1,4,3,.
PAFAH2 inh,-2,-4,9,-5,0,10,-3,4

Reprinted from the part before: two entries, followed by the next part.
#15 COc1ccc(OC)c(NC(=O)CSc2ccc3nnc(-c4cccnc4)n3n2)c1
#16 CCOC(=O)[C@@H](C)N(Cc1ccc(OC)cc1)S(=O)(=O)N(Cc1ccccc1)[C@H](C(=O)OC)C(C)C
#17 COc1cc(OC)cc(C(=O)NC(=S)Nc2ccc3c4c(cccc24)CC3)c1
#18 OC1CCN(C(c2ccc3ncccc3c2)c2nnnn2C2CCCCC2)CC1 (stereo not drawn)
#19 COC(=O)[C@@H](CC(C)C)NS(=O)(=O)N(Cc1ccccc1)[C@@H](CC(C)C)C(=O)OC
#20 Cc1cc(-c2ccccc2)c2c3c(cn2n1)c(=O)n(C)c(=O)n3C
#21 CN(C)CCC(Oc1ccccc1OCc1ccccc1)c1ccccc1 (stereo not drawn)
#22 COc1ccc(NS(=O)(=O)c2cccc(C(=O)O)c2)cc1
#23 COc1ccc(CN(CCC(c2ccco2)C(C)C)C(C)=O)cc1OC (stereo not drawn)
#24 Cc1ccc(CNc2cc(-c3nn4c(C)nnc4s3)ccc2C)s1

screen / no.,15,16,17,18,19,20,21,22,23,24
PME-1 inh,-2,1,-1,0,4,2,0,0,-2,10
LYPLA1 counter,-2,-3,1,-3,0,1,0,0,-3,2
PAD4 inh,-2,0,-4,2,-3,-2,0,1,-2,-4
PAFAH1B3 FP inh,0,7,-12,6,2,10,3,3,0,13
Fam108B inh,3,.,-9,-2,.,-1,3,3,3,7
PAFAH2 inh,-3,4,-6,3,3,-1,7,3,-4,11

#25 COC(=O)c1cc2ccsc2n1CC(=O)N(C)c1ccccc1
#26 COc1cc(/C=C/C(=O)O)cc(S(=O)(=O)NNC(=O)c2cc(C)oc2C)c1OC
#27 COC(=O)c1nc(-c2ccccc2)n[nH]1
#28 O=C(CSc1ccc(C(F)(F)F)cc1[N+](=O)[O-])NCCOc1ccccc1
#29 C#CCNC(=O)C1CCN(c2ccc(S(=O)(=O)N3CCOCC3)cc2Cl)CC1
#30 Cc1nc(SCC2(C)CC2(Cl)Cl)n[nH]1 (stereo not drawn)
#31 COc1cccc(-c2nc(-c3ccccc3)no2)c1
#32 COc1ccc(Cn2nnnc2C(C(C)C)N(Cc2ccco2)Cc2cccs2)cc1 (stereo not drawn)

screen / no.,25,26,27,28,29,30,31,32
PME-1 inh,8,.,-2,-5,1,2,-1,-2
LYPLA1 counter,4,.,-5,0,0,-1,-3,-1
PAD4 inh,-1,3,-2,0,-4,-6,-1,2
PAFAH1B3 FP inh,2,3,1,4,-7,6,0,10
Fam108B inh,3,.,2,-1,-4,4,-6,-2
PAFAH2 inh,8,3,2,-11,-5,0,-7,0

#33 CN(CC(=O)Nc1cccc(F)c1)C(=O)c1cc(-c2ccco2)nc2ccccc12
#34 Cc1cc(SCC(=O)N2CCC(c3noc4ccc(F)cc34)CC2)nc2ccccc12
#35 COc1ccc(/C=N/Nc2cc(C)nc(-n3nc(C)cc3C)n2)cc1
#36 O=C1CSc2ccc(S(=O)(=O)NCc3ccc(Cl)cc3)cc2N1
#37 C=CCn1c(CCNC(=O)c2cccs2)nnc1SCC(=O)Nc1cccc(Cl)c1C
#38 CCCCC(=O)OCC(=O)Nc1cccc(S(=O)(=O)NC2=NCCCCC2)c1
#39 O=C(c1ccco1)N(CCC(c1ccccc1)c1ccco1)Cc1ccccc1 (stereo not drawn)
#40 C=CCn1c(CCNC(=O)c2ccccc2F)nnc1SCC(=O)Nc1ccccc1F

screen / no.,33,34,35,36,37,38,39,40
PME-1 inh,-6,3,33*,1,6,1,-4,2
LYPLA1 counter,-5,2,-3,-2,0,-2,-1,0
PAD4 inh,-7,1,-1,-1,-3,3,-3,-1
PAFAH1B3 FP inh,-6,-1,10,6,2,4,-11,-1
Fam108B inh,5,-6,-2,-1,3,-1,-2,0
PAFAH2 inh,14,-11,6,7,4,16,-5,-18

#41 COC(=O)/C=C/c1ccc(OC(=O)OC)c(OC(=O)OC)c1
#42 CC1(C)CC(NC(=O)C2CCCCC2C(=O)O)CC(C)(C)N1 (stereo not drawn)
#43 Cc1ccc(C)c(SCC(=O)Nc2cccc(S(=O)(=O)NC3=NCCCCC3)c2)c1
#44 COc1cc(O)ccc1C(=O)CCc1ccc(O)cc1
#45 Cc1cccc(Cn2c(=O)n(Cc3ccco3)c(=O)c3ccccc32)c1
#46 C=CCSc1nc(Oc2ccccc2)c2sccc2n1
#47 COc1ccc(NS(=O)(=O)c2cccc(C(=O)Nc3ccccc3C(=O)O)c2)cc1
#48 Cc1ccccc1OCC(=O)Nc1cccc(S(=O)(=O)NC2=NCCCCC2)c1

screen / no.,41,42,43,44,45,46,47,48
PME-1 inh,16,-2,5,-3,3,-2,-11,5
LYPLA1 counter,3,-4,2,3,-4,-2,-9,2
PAD4 inh,-2,0,2,-1,-1,2,0,0
PAFAH1B3 FP inh,-1,0,-10,3,8,10,1,6
Fam108B inh,4,-1,1,-8,-6,2,-4,-1
PAFAH2 inh,2,-1,1,-6,1,-3,-25,3

#49 CCC(=O)N(CCC(c1ccc(C)cc1)c1ccco1)Cc1ccco1 (stereo not drawn)
#50 O=S(=O)(c1ccc(Br)cc1)N1CCN(c2cc(-c3ccccc3)nc3ncnn23)CC1
#51 Cc1ccc(-c2nc(CN(C)C3CCOCC3)c(C)o2)s1
#52 COc1ccc(Nc2ncccc2C(=O)Nc2ccccc2)cc1
#53 COc1ccc(CNc2nc(SC)n[nH]2)cc1OC
#54 COc1ccc(NS(=O)(=O)c2ccc(N)c(C(=O)O)c2)cc1
#55 CC1(C)CC2CN(C(=O)Cc3ccccc3)C(C)(C2)C1 (stereo not drawn)
#56 COC(=O)[C@H](C(C)C)N(Cc1ccccc1)S(=O)(=O)CCNC1CCCC1

screen / no.,49,50,51,52,53,54,55,56
PME-1 inh,-6,0,0,6,2,3,-4,.
LYPLA1 counter,-1,-8,1,-1,1,1,-1,.
PAD4 inh,-6,-6,0,2,-6,-3,-2,2
PAFAH1B3 FP inh,-1,-1,12,0,5,9,-7,5
Fam108B inh,1,-5,13,2,0,5,-3,.
PAFAH2 inh,-2,1,-4,-5,9,5,2,-4

#57 CC1Cc2ccccc2N1C(=O)CNc1ccccc1N1CCCCC1 (stereo not drawn)
#58 CCOc1ccc(-c2cc(C(=O)Nc3ccc4c(c3)OCCO4)c3ccccc3n2)cc1
#59 CC(C)=CCCC(C)CN1CCC(N2CCC(C(=O)N3CCCC3)CC2)CC1 (stereo not drawn)
#60 CCOC(=O)CNc1nnc(SCC(=O)OCC)[nH]c1=O
#61 CSc1nc(Oc2ccc(Cl)cc2)c2sccc2n1
#62 O=C(CN1CCN(Cc2ccc(Cl)cc2)CC1)N/N=C/C=C/c1ccccc1[N+](=O)[O-]
#63 CC(=O)NC1C(=O)N=C(SCC(=O)Nc2sc3c(c2C#N)CCCCCC3)NC1=O (stereo not drawn)
#64 CCCc1cc2c(=O)c(-c3ccccn3)c(C)oc2cc1O

screen / no.,57,58,59,60,61,62,63,64
PME-1 inh,4,-8,-2,4,-2,1,7,1
LYPLA1 counter,3,-7,2,0,-1,-2,-1,-1
PAD4 inh,0,-7,-2,0,4,3,9,7
PAFAH1B3 FP inh,11,-12,1,6,4,3,0,-4
Fam108B inh,2,-10,-1,6,0,-2,2,3
PAFAH2 inh,7,-28,6,10,-4,7,1,-6

#65 Cc1ccccc1Nc1nc(-c2ccccc2)c(C(=O)Nc2cccnc2)s1
#66 COc1cccc(C2NC(=O)NC(C)=C2C(=O)Nc2cccc(C)c2C)c1 (stereo not drawn)
#67 CC(C)=CCCC(C)CN1CCC(O)CC1 (stereo not drawn)
#68 C=CCNc1cnn(-c2ccccc2)c(=O)c1Cl
#69 Fc1cccc(Cc2noc(CN3CCOCC3)n2)c1
#70 Cc1ccc(NS(=O)(=O)c2cccc(C(=O)OCC(=O)NCc3ccco3)c2)cc1

screen / no.,65,66,67,68,69,70
PME-1 inh,-1,-4,3,-5,2,-1
LYPLA1 counter,-4,1,-1,-1,0,1
PAD4 inh,0,1,0,-3,-2,2
PAFAH1B3 FP inh,1,-4,5,3,1,4
Fam108B inh,-3,-3,3,-7,-6,5
PAFAH2 inh,0,3,2,-4,3,6

Entries shown so far that have a thiophene ring, fused or not (9):
#9 CCC(=O)N(CCC(c1ccccc1)c1ccco1)Cc1cccs1 (stereo not drawn)
#24 Cc1ccc(CNc2cc(-c3nn4c(C)nnc4s3)ccc2C)s1
#25 COC(=O)c1cc2ccsc2n1CC(=O)N(C)c1ccccc1
#32 COc1ccc(Cn2nnnc2C(C(C)C)N(Cc2ccco2)Cc2cccs2)cc1 (stereo not drawn)
#37 C=CCn1c(CCNC(=O)c2cccs2)nnc1SCC(=O)Nc1cccc(Cl)c1C
#46 C=CCSc1nc(Oc2ccccc2)c2sccc2n1
#51 Cc1ccc(-c2nc(CN(C)C3CCOCC3)c(C)o2)s1
#61 CSc1nc(Oc2ccc(Cl)cc2)c2sccc2n1
#63 CC(=O)NC1C(=O)N=C(SCC(=O)Nc2sc3c(c2C#N)CCCCCC3)NC1=O (stereo not drawn)

screen / no.,9,24,25,32,37,46,51,61,63
PME-1 inh,6,10,8,-2,6,-2,0,-2,7
LYPLA1 counter,1,2,4,-1,0,-2,1,-1,-1
PAD4 inh,-2,-4,-1,2,-3,2,0,4,9
PAFAH1B3 FP inh,0,13,2,10,2,10,12,4,0
Fam108B inh,0,7,3,-2,3,2,13,0,2
PAFAH2 inh,-2,11,8,0,4,-3,-4,-4,1

High-throughput results: PubChem BioAssay, The Scripps Research Institute Molecular Screening Center
